Source: PubChem BioAssay
FPR ligand: ligands of human FPR, also counter-screen for FPRL1 ligands; FPR-expressing cells, fluorescent ligand binding, flow cytometry; inhibition, %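 (tested at 6.7 µM)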; 24,000 tested, 0.74% active;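 further: 0% = buffer wells and 100% = receptor blocker peptide wells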
Target sequence (P21462 whole entry, looked up): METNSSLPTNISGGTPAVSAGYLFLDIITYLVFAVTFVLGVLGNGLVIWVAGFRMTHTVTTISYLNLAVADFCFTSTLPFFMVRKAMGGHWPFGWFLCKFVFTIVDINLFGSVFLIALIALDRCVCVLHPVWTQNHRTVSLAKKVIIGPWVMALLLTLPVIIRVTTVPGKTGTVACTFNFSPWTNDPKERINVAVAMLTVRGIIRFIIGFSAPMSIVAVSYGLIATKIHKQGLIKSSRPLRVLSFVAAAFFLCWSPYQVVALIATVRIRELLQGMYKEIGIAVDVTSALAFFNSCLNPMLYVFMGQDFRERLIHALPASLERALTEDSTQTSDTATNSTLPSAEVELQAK
VCAM-1 augmentation: enhancers of VCAM-1 display on endothelial cells, imaging, high-content imaging, pooled HUVEC, TNFa stimulus (AID 457); Pooled HUVEC, TNFa-induced VCAM-1 immunofluorescence imaging; hits of this screen are not shown here; calls only; 10,000 tested, 0.2% active;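 active means a top-ranked rise in VCAM-1 staining upheld on image or statistical review; inactive means the rest, including candidates rejected on review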;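 further: compounds tested at 5 µM in the well; cells exposed to compound for 24 hours before fixing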
VCAM-1 down: inhibitors of TNFa-induced VCAM-1 surface display, cell-based, plate reader, pooled HUVEC, TNFa stimulus (AID 454). HUVEC TNFa-induced VCAM-1 surface immunofluorescence, plate reader; numbers were filed only for top-ranked candidate wells. 10,000 tested, 0.2% active. inhibition, % at 5 µM;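 active means compound among top-ranked inhibitors of TNF-induced VCAM-1 adhesion protein staining, with the hit upheld by image or statistical review; inactive means the rest, including hits rejected on review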;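 further: 0% = TNFa with vehicle and 100% = cells without TNFa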
FPRL1 ligand: binds the human formylpeptide receptor-like-1 FPRL1; FPRL1-expressing cells, fluorescent ligand binding inhibition, flow cytometry; 24,000 tested, 0.3% active; inhibition, %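 (tested at 6.7 µM)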; AID 441;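 further: 0% = buffer alone and 100% = receptor blocker peptide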
Target sequence (P25090 whole entry, looked up): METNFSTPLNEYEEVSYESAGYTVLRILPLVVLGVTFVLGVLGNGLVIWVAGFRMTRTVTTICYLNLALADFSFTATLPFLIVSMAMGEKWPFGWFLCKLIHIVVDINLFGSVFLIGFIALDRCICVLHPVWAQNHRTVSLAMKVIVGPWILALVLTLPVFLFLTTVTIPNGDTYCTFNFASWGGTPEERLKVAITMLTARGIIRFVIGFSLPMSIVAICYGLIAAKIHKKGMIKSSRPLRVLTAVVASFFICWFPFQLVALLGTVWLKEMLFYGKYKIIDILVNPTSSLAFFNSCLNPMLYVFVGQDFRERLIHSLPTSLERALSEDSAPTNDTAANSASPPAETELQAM
VCAM-1 down imaging: suppression of endothelial VCAM-1 upregulation – imaging, high-content imaging, pooled HUVEC, TNFa stimulus (AID 456) | HUVEC TNFa-induced VCAM-1 surface expression, immunofluorescence imaging; numbers were filed only for top-ranked candidate wells | inhibition, % at 5 µM, or IC50 in µM where a hit was titrated | 10,000 tested, 0.2% active;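 active means top tenth filtered wells with inhibition above zero that passed visual or statistical confirmation; inactive means the rest, including hits rejected on review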;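 further: 0% = stimulated vehicle wells and 100% = unstimulated cells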
* = called active by the depositor; i = inactive; . = no result given.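 How the source made its calls, unless noted: active means mean above 30%; inconclusive means self-fluorescent; inactive means the rest.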

Each structure is followed by: VCAM-1 augmentation, VCAM-1 down imaging, VCAM-1 down, FPR ligand, FPRL1 ligand
O=c1[nH]c(N2CCCCC2)nc2c1CCCC2
    i, i, i, 4, 0
CCc1nc2sc3ccccc3c(=O)c2c(=O)n1Cc1ccco1
    i, i, i, 3, 8
CC(C)(C)n1ncc2c(=O)n(CC(=O)NCc3ccco3)cnc21
    i, i, i, -4, 0
CCOC(=O)c1cc2c(=O)n3cccc(C)c3nc2n(Cc2ccco2)c1=NC(=O)c1cccnc1
    i, i, i, 0, -7
CCc1cccc(NS(=O)(=O)c2ccc3c(c2)oc(=O)n3C)c1
    ., ., ., 3, -4
CCOc1ccc(C(=O)CN2CCN(S(=O)(=O)c3ccc(OC)cc3)CC2)cc1
    i, i, i, 13, 2
O=C(Nc1cc(C(F)(F)F)ccc1Cl)c1cc(C2CC2)on1
    i, i, i, 3, 2
COC1(OC)N=C(N)C2(C#N)C(c3ccc4c(c3)OCO4)C12C#N (stereo not drawn)
    ., ., ., -2, 3
O=C(O)Cn1c(-c2ccccc2)nc2ccccc21
    ., ., ., 2, 0
O=C(c1ccco1)N1CCN=C1SCc1cccc(F)c1
    ., ., ., 3, -8

Given as labelled records: part of the list above
SMILES: CCOC(=O)c1cc2c(=O)n3cccc(C)c3nc2n(Cc2ccco2)c1=NC(=O)c1cccnc1
  VCAM-1 augmentation = i
  VCAM-1 down imaging = i
  VCAM-1 down = i
  FPR ligand = 0
  FPRL1 ligand = -7

SMILES: CC(C)(C)n1ncc2c(=O)n(CC(=O)NCc3ccco3)cnc21
  VCAM-1 augmentation = i
  VCAM-1 down imaging = i
  VCAM-1 down = i
  FPR ligand = -4
  FPRL1 ligand = 0

SMILES: O=C(O)Cn1c(-c2ccccc2)nc2ccccc21
  VCAM-1 augmentation = .
  VCAM-1 down imaging = .
  VCAM-1 down = .
  FPR ligand = 2
  FPRL1 ligand = 0

Going on with the list.
Each structure is followed by: VCAM-1 augmentation, VCAM-1 down imaging, VCAM-1 down, FPR ligand, FPRL1 ligand
COc1nc(Oc2ccc(C(=O)OCC(N)=O)cc2)nc(N(C)C)n1
    ., ., ., -6, 0
CCOC(=O)c1cnc2ccc(OCC)cc2c1N1CCN(C)CC1
    ., ., ., 5, -4
O=C(NCCc1ccccc1)c1cc(-c2ccc3c(c2)OCO3)on1
    ., ., ., -4, -1
CCn1c(=O)c2cc(C(=O)N3CCN(C(=O)c4ccco4)CC3)sc2c2ccccc21
    ., ., ., -1, -5
Cc1noc(C)c1S(=O)(=O)N1CCC(C(=O)N2CCN(c3ccccc3Cl)CC2)CC1
    ., ., ., 0, -11
C=CCOC(=O)C(C#N)c1nc2ccccc2nc1N1CCN(Cc2ccccc2)CC1 (stereo not drawn)
    i, i, i, -1, -6
COc1cc2c(cc1OC)C(C)N(C(=O)c1cc3n(n1)C(C(F)(F)F)CC(c1ccco1)N3)CC2 (stereo not drawn)
    i, i, i, -6, -5
CC1=C(C(=O)N2CCCCCC2)C2(CCC(C)CC2)OC1=O (stereo not drawn)
    ., ., ., -2, 9
O=C1COc2ccc(C(=O)NCc3ccco3)cc2N1
    i, i, i, -3, -12
CC1CCc2nc3ccc(S(=O)(=O)N4CCC(C(=O)NC5CCCC5)CC4)cc3c(C(=O)O)c2C1 (stereo not drawn)
    ., ., ., 8, -2
O=C(CCN1C(=O)C2C3C=CC(C3)C2C1=O)NCc1cccnc1 (stereo not drawn)
    ., ., ., 2, 3
OC(CN1CCN(c2ccccc2)CC1)c1ccc2c(c1)CCN2 (stereo not drawn)
    i, i, i, -2, 4
CC(=O)N1CCC(N(C(=O)Nc2ccc(C)c(C)c2)C2CCCC2)CC1
    i, i, i, -2, 3
Cc1ccc(C(=O)NCCCN2CCOCC2)cc1N1CCCC1=O
    ., ., ., -8, -16
Cc1ccc2nc(-c3ccc(S(=O)(=O)N4CCOCC4)cc3)cn2c1
    i, i, i, 4, 0
Cc1cc(C)cc(N(CC(=O)NCc2ccco2)S(=O)(=O)c2c(C)noc2C)c1
    ., ., ., 1, 1
Cc1oc(-c2ccccc2)nc1Cn1cccc1C1=NC(c2ccccc2)CO1 (stereo not drawn)
    ., ., ., 3, 1
COc1cc(-c2nc(N)n[nH]2)cc(OC)c1OC
    ., ., ., -1, 4
O=C(Cn1c(=O)sc2ccccc21)NCc1ccccn1
    ., ., ., -2, 2
CCn1c(=S)sc2c(=O)n(-c3ccccc3)c(SCC(=O)NCc3ccco3)nc21
    ., ., ., 4, 1
CC(C)N(Cc1nc(-c2ccc(Cl)cc2)no1)C(=O)CCC1CCCC1
    ., ., ., -3, -9
COC(=O)c1ccc(-c2nc(-c3cccs3)no2)cc1
    ., ., ., 2, -1
CCOc1ccc(-c2nnc3ccc(SC)nn23)cc1
    ., ., ., 5, -5
O=C(NCc1ccco1)c1sc(=S)n2c1[nH]c(=O)c1ccccc12
    ., ., ., 8, 0
CCC(Sc1ccc2nnc(-c3ccc(F)cc3)n2n1)C(=O)O (stereo not drawn)
    ., ., ., -13, -10
O=C(CCCCn1c(=O)[nH]c2ccsc2c1=O)NCc1cccnc1
    i, i, i, -12, -6
O=C(CCNS(=O)(=O)c1cccc2nonc12)NC1CCCc2ccccc21 (stereo not drawn)
    ., ., ., 7, 0
CCOC(=O)c1oc2ccccc2c1NC(=O)c1ccc(S(=O)(=O)N2CCCC2)cc1
    ., ., ., 0, -14
CC(=O)Nc1ccc2c(c1)CCC2=O
    ., ., ., -13, 4
O=C(CCN1C(=O)C2C3C=CC(C3)C2C1=O)NC1CCCc2ccccc21 (stereo not drawn)
    i, i, i, -2, 3
CC1CCCN(c2ccc(C(=O)NCc3cccs3)cn2)C1 (stereo not drawn)
    i, i, i, 7, 4
COC(=O)c1ccc(CSc2nc(-c3ccc(OC)cc3)nc3c2c(=O)n(C)c(=O)n3C)o1
    i, i, i, 1, 4
COc1ccc(-c2nnc(SCCC(=O)O)n2-c2ccccc2)cc1
    i, i, i, 18, 13
COc1ccc(CCNC(=O)CN(C)S(=O)(=O)c2cccc3nsnc23)cc1OC
    ., ., ., 1, 2
CCOCCCn1c(=S)[nH]c2cc3c(cc2c1=O)OCO3
    i, i, i, -2, -3
CCc1ccc(N(CC(=O)O)S(=O)(=O)c2c(C)noc2C)cc1
    ., ., ., -7, 2
Cn1c([N+](=O)[O-])cnc1COC(N)=O
    i, i, i, 5, 9
CCC(C)(C)NC(=O)C(c1ccco1)N(C(=O)Cn1nnc2ccccc21)c1ccc2c(c1)OCO2 (stereo not drawn)
    i, i, i, 4, -8
C=CCSc1nc2c(c(=O)[nH]c(=O)n2C)n1CC
    i, i, i, -2, 0
COc1cc(-n2c(C)nc3cc(C(=O)N4CCOCC4)ccc32)cc(OC)c1OC
    ., ., ., -5, 1
CCCNC(=O)CS(=O)Cc1nc(-c2cccc(OC)c2)oc1C (stereo not drawn)
    ., ., ., -2, -4
Cc1ccc(C(C)n2cc(C(=O)NCCN3CCN(C)CC3)nn2)cc1 (stereo not drawn)
    i, i, i, -7, 1
CCOc1ccc(C2C(=O)N(C3CCCCC3)CC(=O)N2CC2CCCO2)cc1OC (stereo not drawn)
    ., ., ., 8, 0
Cc1cc2oc3c(c(=O)c2cc1C)C(c1ccc(C(C)C)cc1)N(CCCN1CCOCC1)C3=O (stereo not drawn)
    ., ., ., 6, 7
COC(=O)c1c(-c2ccc(C)cc2)csc1N
    ., ., ., 7, -1
Cc1ccc(S(=O)(=O)N2CCN(CCO)CC2)cc1-c1nnc2c3ccccc3c(C)nn12
    i, i, i, -4, -5
Cc1onc(-c2ccccc2Cl)c1C(=O)Nc1cnn(Cc2ccccc2)c1
    i, i, i, 3, 2
COc1ccc(-n2nc(C(=O)Nc3ccc4c(c3)OCO4)c3ccccc3c2=O)cc1
    ., ., ., -4, -4
COc1cc(Cl)c(C)cc1NC(=O)COC(=O)c1cnc(C)cn1
    i, i, i, -8, -2
Cc1cc(-c2ccccc2)nc2cc(C(N)=O)nn12
    i, i, i, 3, 6

(list continues)
Each structure is followed by: VCAM-1 augmentation, VCAM-1 down imaging, VCAM-1 down, FPR ligand, FPRL1 ligand
CCCCCCNC(=O)c1c(N)n(/N=C/c2ccco2)c2nc3ccccc3nc12
    i, i, i, 0, 7
CN(C)CC(=O)N1c2ccccc2CCc2ccc(NC(=O)c3ccc(N)cc3)cc21
    i, i, i, -1, 6
COC(=O)Nc1ccc(NC(C)=O)cc1
    i, i, i, -2, 7
CCOc1ccccc1C1CC(=O)NC2=C1C(=O)CC(C)(C)C2 (stereo not drawn)
    ., ., ., 1, 1
CCN(CC)CCOC(=O)c1cccc(OC)c1
    i, i, i, -2, -1
COc1cc(C(=O)NCCC(=O)NCCN2CCOCC2)cc(OC)c1OC
    ., ., ., 1, 0
Cc1ccc(C(C(=O)NC2CCCCC2)N(C(=O)c2csnn2)C2CCCC2)o1 (stereo not drawn)
    i, i, i, 13, -1
COC(=O)CCCCCNc1ccc(C(=O)OC)cc1N
    i, i, i, 0, -7
Cc1ccc(Cl)cc1N1CCN(C(=O)c2cc3c(=O)n(C)c4ccccc4c3n2C)CC1
    ., ., ., -2, -7
CC(=O)Oc1ccc(-c2ccc(C(=O)O)cc2)cc1
    i, i, i, -2, 1
COc1cccc(Nc2cc(C)nc3ccccc23)c1
    i, i, i, -14, 0
CCOc1ccc(C2C(C#N)=C(N)Oc3cc(C)n(Cc4ccco4)c(=O)c32)cc1OC (stereo not drawn)
    i, i, i, 10, 2
Cc1cc(C)c2cc3c(ccn3C3OC[C@H](O)[C@H](O)[C@H]3O)cc2n1 (stereo partly drawn)
    i, i, i, -3, -1
c1nnc(NC2=NCCCCC2)s1
    i, i, i, -3, -2
[O-][N+]12CC[N+]([O-])(CC1)c1ccccc12
    ., ., ., 4, 11
Cc1ccc2cc(CN(CC(C)C)C(=O)C3CCCO3)c(=O)[nH]c2c1 (stereo not drawn)
    i, i, i, 6, 7
Cn1nc(-c2ccc(Cl)cc2)c2cc(C(=O)NCCCN3CCOCC3)sc21
    ., ., ., -6, -3
COc1ccccc1/C=c1\sc2nc(-c3ccncc3)nn2c1=O
    ., ., ., 5, -8
C[C@]12CC[C@@H]3c4ccc(O)cc4C(=O)C[C@H]3[C@@H]1CC[C@@H]2O
    i, i, i, 4, -3
CCc1c(C)sc(NC(=O)c2cc(C)on2)c1C#N
    ., ., ., 6, -3
Cc1ccc(NC(=O)c2ccco2)cc1NC(=O)CSc1nnc(-c2cccs2)n1C
    i, i, i, -4, -3
O=c1c2ccccc2c(C=Nc2ccc(Cl)cn2)c(O)n1-c1cc(Cl)ccc1N1CCOCC1
    i, i, i, -6, -6
CCC(=O)Nc1cc(C(=O)NCC2CCCN2CC)c(OC)cc1N(C)C (stereo not drawn)
    i, i, i, 9, 5
CCN(CC)S(=O)(=O)c1ccc(C(=O)N2CCN=C2SC)cc1
    ., ., ., 2, -2
O=C(Nc1ccccc1Cl)N1CCN(c2ccc3nnc(-c4ccc(F)cc4)n3n2)CC1
    ., ., ., 3, -2
COc1ccc(C2/C(=C(\O)c3ccc4c(c3)OCCO4)C(=O)C(=O)N2Cc2ccco2)c(OC)c1 (stereo not drawn)
    ., ., ., -16, -9
Cc1csc(NC(=O)C2CCCN(S(=O)(=O)c3cnc[nH]3)C2)n1 (stereo not drawn)
    ., ., ., 6, 0
Cc1ccc(-n2nc(C)c3cc(C(=O)O)sc32)cc1
    i, i, i, 3, -1
Cc1ccc(-c2ccc(=O)n(CC(=O)N3CCN(c4cccc(C)c4)C(C)C3)n2)cc1 (stereo not drawn)
    ., ., ., 1, -6
Cc1noc(/C=C/N(C)C)c1S(=O)(=O)N1CCCC(C(=O)NC(C)c2ccccc2)C1 (stereo not drawn)
    ., ., ., 0, -7
CC(=O)c1cccc(S(=O)(=O)N2CCC(n3nnc4cc(F)ccc43)CC2)c1
    i, i, i, 10, 5
Cc1ncc([N+](=O)[O-])n1CCO
    i, i, i, -5, -1
O=C(CSc1ncnc2c1oc1ccccc12)NCc1ccco1
    i, i, i, 0, 5
Cc1cc(-c2ccc(F)cc2)nc2cc(C(N)=O)nn12
    i, i, i, -6, -2
O=C(c1ccc2nc(N3CCCCC3)sc2c1)N1CCN(Cc2ccc3c(c2)OCO3)CC1
    ., ., ., 2, 0
C=CCN(C(=O)Cn1c(C(=O)OC)cc2oc(C)cc21)c1ccccc1
    ., ., ., 4, -2
O=C(O)CC(Cn1cnnn1)c1ccccc1 (stereo not drawn)
    ., ., ., -7, -3
COc1ccc(N(CC(=O)NCc2ccccc2OC)S(=O)(=O)c2c(C)nn(C)c2C)cc1
    ., ., ., 4, -3
Cc1cc(=O)n2nc(N3CCC(C(=O)N4CCN(C)CC4)CC3)sc2n1
    ., ., ., -3, 0
Cc1cc(C)n(-c2nc3nonc3nc2-n2nc(C)cc2C)n1
    i, i, i, 0, 3

An excerpt; count on the stated rates, not on these rows.
